NPYLR7 agonist – mosquito NPYLR7 agonism; HEK293T NPYLR7/Galpha15, GCaMP6s calcium fluorescence; activation, % at 10 µM; 270,000 tested, 0.15% active; AID 1259423; in the data active = activation above about 40%;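 also: 0% = vehicle and 100% = reference agonist at the receptor; some compounds past the cut are filed as inactive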
NPYLR7 agonist max-min – second read-out of NPYLR7 agonist, no call of its own (marks repeat the call); activation, %; measured here: Max-Min RFU normalised activation; some inactives read as strong as hits;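 span of the calcium signal over five minutes; 0% = vehicle and 100% = native peptide agonist; compound fluorescence can raise it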
* = called active by the depositor; & = joins results of further samples.

#	smiles	NPYLR7 agonist	NPYLR7 agonist max-min
1	Cc1sc2nc(CN3CCOCC3)nc(Sc3nnnn3C3CC3)c2c1C	5.7	11.3
2	O=C(c1c(F)c(F)cc(F)c1F)N1CCC(Cc2ccc3c(c2)OCO3)CC1	5.3	-1.3
3	CCC(C)NCC(=O)Nc1c(C)cccc1C (configuration not stated)	8.4	6.5
4	C=C1c2ccccc2NC(=O)N1Cc1ccccc1Cl	5.3	4.6
5	Cc1ccc(C(=O)N2CCC(NC(=O)C3CCCCC3)CC2)s1	-14.6	-16.4
6	CCCC1=NN2C(=N)/C(=C/c3cc(OC)ccc3OC)C(=O)N=C2S1	1.8	0.7
7	COc1cccc(-c2cccc(-c3ccc(NC(=O)c4cc(C)n(C(C)(C)C)n4)cc3)n2)c1	-3.3	-3.4
8	O=C(CSC(F)(F)F)NCC1CCC1	0.8	7.2
9	CCOC(=O)C1CCCN(CC(=O)N2N=C(c3ccccc3Cl)CC2c2cc(C)ccc2C)C1 (configuration not stated)	-0.5	6.9
10	CSc1nc(C(=O)NC2CCCc3c2cnn3-c2ccc(F)cc2F)cs1 (configuration not stated)	-1.2	-1.9
11	Cc1ccc(N2C(=O)CSC2c2cccnc2)cc1F (configuration not stated)	-4.4	-10.5
12	CCc1cc(C=NC2CCCCC2)c(O)s1	-1.2	-2.6
13	O=C(NC1CCCCC1)C1CCC(=O)N1C1CCCC1 (configuration not stated)	16.6	12.4
14	CCOc1ccc(OCC)c(NCc2cc(=O)n3nc(C)sc3n2)c1	4.0	0.9
15	CN1C(=O)CC(Sc2ncccc2C(=O)O)C1=O (configuration not stated)	-7.0	-14.6
16	COc1cccc(Cc2nsc(N(CCC(=O)N3CCC(C(N)=O)CC3)Cc3ccco3)n2)c1	-8.7	-13.2
17	CCOC(=O)c1cc(-c2ccccc2)sc1NC(=O)c1ccccc1C(F)(F)F	-3.2	-7.0
18	COc1ccc2nc(-c3ccc(C)c(NC(=O)c4cc(C)cc(C)c4)c3)cn2n1	-7.5	-12.4
19	CCNC(=O)N1C2CCC(O)(CC2)C1COC (configuration not stated)	26.4	25.5
20	Cc1nccn1-c1ccc(NC(=O)C2CCCN(Cc3cccn3-c3ncccn3)C2)cc1 (configuration not stated)	-6.8&4.7	-6.8&2.9
21	C=CCOc1cccc(CN(C)C(=O)c2sc3ncn(C)c(=O)c3c2C)c1	11.4	1.1
22	Cn1c(=O)c2c(ncn2C2CCCCC2=O)n(C)c1=O (configuration not stated)	-11.2	-17.7
23	CCN(Cc1cccc(OC)c1)C(=O)c1cccc2nccnc12	-0.6	-1.7
24	COCc1cnc2c(c1SCC(=O)N1CCC(C)CC1)c(=O)n(C)c(=O)n2C	12.6	12.7
25	CCC(C)C(NC(=O)NC1CCCCC1)C(=O)Nc1nnc(-c2cccc(Br)c2)s1 (configuration not stated)	-2.6	6.5
26	Cn1c(N)c(C(=O)COC(=O)C2CCCC2)c(=O)n(C)c1=O	1.5	-5.0
27	Cc1ccn2c(NC(=O)CC(C)(C)C)c(-c3ccc(F)cc3)nc2c1	3.2	9.0
28	O=C(c1cccc(Cn2cc(Br)c([N+](=O)[O-])n2)c1)N1N=C(C(F)F)CC1(O)C(F)F (configuration not stated)	0.7	6.3
29	C(=N/Nc1nc(N2CCCC2)nc(N2CCOCC2)n1)/c1ccc2c(c1)OCO2	-0.9	-6.7
30	CC1NC2(C(=O)c3ccccc3C2=O)C2C(=O)N(c3ccccc3)C(=O)C12 (configuration not stated)	6.0	3.5
31	CC(C)C[C@H](N)CSSC[C@@H](N)CC(C)C	5.1	-47.9
32	CCn1c(-c2ccc(C)cc2)cnc1SCC(=O)NC1CC1	9.5	2.5
33	COCCNCC(=O)Nc1nc(-c2ccc(Cl)cc2)cn1-c1ccc(OC)cc1	19.9	9.4
34	COC(=O)C1=C(C)NC(C)=C(C(=O)OC)C1c1ccc(OC)c([N+](=O)[O-])c1	-11.0	-15.9
35	O=C(NC(c1ccccc1)c1cnccn1)C1CCN(CCOc2ccc(Cl)cc2)CC1 (configuration not stated)	1.8	5.8
36	O=C(CSc1nnc(-c2cccs2)o1)N1N=C(c2cccs2)CC1c1ccco1 (configuration not stated)	-2.8	7.1
37	COc1cc(CC(=O)N2CCN3C(=O)CNC(=O)C3C2)cc(OC)c1OC (configuration not stated)	3.6	2.3
38	N=c1c2c(n(Cc3ccc(F)cc3)c3c1CCC3)CCC2	-8.8	-14.1
39	CCOc1ccc(-n2c(=O)[nH]c3c(C(N)=O)nc(C4CCCCC4)nc32)cc1	-4.8	-6.8
40	c1ccc(-n2cc(CNCc3ccccc3-n3cncn3)c(-c3ccc4c(c3)OCO4)n2)cc1	7.1	3.8
41	Cc1nn(C)c(Cl)c1S(=O)(=O)N(c1ccc(F)cc1)C(C)C	9.5	5.1
42	O=c1[nH]c(NCCc2ccccc2)nnc1Cc1ccccc1	13.1	10.6
43	OCc1csc(COc2ccc(CN(C(=S)Nc3ccc(F)cc3)C3CC3)cc2)n1	-0.7	1.9
44	CC(C)N1C(=O)CCC1C(=O)NC1CCCC1 (configuration not stated)	6.2	1.7
45	CCN=C1NN=C(/C(=N/OC)C(=O)O)CS1	4.0	2.5
46	CC(C)(C)C(=O)Oc1ccccc1-c1nc2ccc(Br)cn2c1NCc1ccccc1	-11.6	0.8
47	O=C(NCc1cccnc1Oc1ccc(F)c(F)c1)c1cnn2ccccc12	-0.4	0.9
48	COc1ccc(S(=O)(=O)N2CCCC(C(=O)Nc3nc(C)cs3)C2)cc1 (configuration not stated)	-4.0	-4.7
49	Clc1ccc(N=c2oc3ccccc3cc2-c2nc3ccccc3[nH]2)c(Cl)c1	4.6	-0.3
50	C[C@H](c1cccc2ccccc12)N(C)C(=O)CCC(=O)NC1CCCC1	0.4	-2.2
51	O=C(NC(c1ccc(Cl)cc1)c1cccnc1)C1CCN(CCCOc2ccc(F)cc2)CC1 (configuration not stated)	0.0	-9.1
52	COc1ccc(NC(=O)C(C)NC(c2ccc(C)cc2)C2CC2)cc1 (configuration not stated)	8.5	5.2
53	CC(=O)Nc1ccc(SCc2noc(-c3cccc(C)c3)n2)cc1	4.8	2.7
54	CN(C)CC(C)(C)CNC(=O)c1cncn1-c1cccc(-c2ccc(Oc3ccccc3)cc2)c1	10.1	19.2
55	Cc1cccc(NC(=O)CCC2CCN(C(=O)CCn3cncn3)CC2)c1	-1.8	-2.5
56	Cc1ccc(N(CC(N)=O)C2SC(=O)N(c3ccc(F)cc3)C2=O)cc1 (configuration not stated)	-0.3	-2.1
57	CS(=O)(=O)N1C[C@H]2CNC[C@@]2(C(=O)NC2CCOCC2)C1	0.1	-0.5
58	Oc1c2cccnc2cn1Cc1cc(-c2ccccc2)n[nH]1	4.8	1.7
59	S=c1[nH]nc(-c2cc(C3CC3)[nH]n2)n1-c1cccc2ncccc12	-8.8	-17.5
60	COc1ccc2nc(CNC(=O)c3cn(C/C=C/c4ccccc4)nn3)[nH]c2c1	2.2	-0.7

Down the list, quoted from above.
Entries 48 to 56 in NPYLR7 agonist read -4.0, 4.6, 0.4, 0.0, 8.5, 4.8, 10.1, -1.8, -0.3

Following part
#	smiles	NPYLR7 agonist	NPYLR7 agonist max-min
61	CCN(CC1CCCCO1)C(=O)c1ccncc1F (configuration not stated)	3.3	0.4
62	CCN(C(=O)c1sc2nc3n(c(=O)c2c1C)CCCCC3)c1ccccc1	2.5	-0.3
63	O=C1c2ccccc2C(=O)c2cc(S(=O)(=O)Nc3ccc(C(=O)N4CCOCC4)cc3)ccc21	-5.8	-12.2
64	Cc1ccc(S(=O)(=O)N2CCCC(Cn3cc(C(C)(C)N)nn3)C2)s1 (configuration not stated)	23.2	10.5
65	CC(C(=O)NCc1cccnc1N(C)C)n1cnc2ccccc21 (configuration not stated)	6.7	5.0
66	CCCCCCC/C=N\NC(=O)C(NC(=O)c1ccccc1)C(C)C (configuration not stated)	1.3	-0.2
67	COCCCNc1nc2nonc2nc1N1CCN(C2CCc3ccccc3C2)CC1 (configuration not stated)	6.2&-1.8	0.8&-5.3
68	CN(Cc1ccn[nH]1)C(=O)c1ccc(OC2CCN(Cc3ccccn3)CC2)cc1	-1.0	-3.9
69	COc1ccc(C(C#N)N2N=C(C)CC2c2ccccc2)cc1OC (configuration not stated)	-1.9	-6.1
70	CCCn1c(SCC(=O)c2ccc(Br)s2)n[nH]c1=O	5.6	5.7
71	CCCCCc1ccc(-c2ccc(/C=C/C(N)=O)cc2)nc1	13.2	11.7
72	Cc1ccccc1C(=O)N1CCN(c2oc(/C=C/c3ccccc3Cl)nc2C#N)CC1	-4.2	-6.7
73	N#Cc1ccccc1OCC(=O)NC(=O)c1ccco1	2.4	-0.1
74	O=C(Nc1nnc(C2CCCCC2)s1)c1ccc[nH]c1=S	-2.0	1.6
75	Cc1nc2cc(Cl)ccc2c(=O)n1NC(=O)c1ccc2ncsc2c1	-0.5	-0.4

No new results follow: an excerpt of the list.
#	smiles	NPYLR7 agonist	NPYLR7 agonist max-min
61	CCN(CC1CCCCO1)C(=O)c1ccncc1F (configuration not stated)	3.3	0.4
62	CCN(C(=O)c1sc2nc3n(c(=O)c2c1C)CCCCC3)c1ccccc1	2.5	-0.3

Looked up above.
In NPYLR7 agonist, Cc1nc2cc(Cl)ccc2c(=O)n1NC(=O)c1ccc2ncsc2c1 has the entry -0.5
In NPYLR7 agonist, O=C1c2ccccc2C(=O)c2cc(S(=O)(=O)Nc3ccc(C(=O)N4CCOCC4)cc3)ccc21 has the entry -5.8

Reformatted: results already given
The line under a structure holds: NPYLR7 agonist | NPYLR7 agonist max-min
62. CCN(C(=O)c1sc2nc3n(c(=O)c2c1C)CCCCC3)c1ccccc1
 : 2.5 | -0.3
73. N#Cc1ccccc1OCC(=O)NC(=O)c1ccco1
 : 2.4 | -0.1
67. COCCCNc1nc2nonc2nc1N1CCN(C2CCc3ccccc3C2)CC1 (configuration not stated)
 : 6.2&-1.8 | 0.8&-5.3
74. O=C(Nc1nnc(C2CCCCC2)s1)c1ccc[nH]c1=S
 : -2.0 | 1.6

Later entries
#	smiles	NPYLR7 agonist	NPYLR7 agonist max-min
76	CC(=O)NCc1ccc(S(=O)(=O)NC(=O)c2ccc3c(c2)COC3)s1	9.9	9.8
77	COc1ccc2oc(=O)c(C(=O)NCc3ccccc3)cc2c1	-14.4	-19.7
78	O=C(c1cnn2cccnc12)N1CCOc2ccc(C(O)C(c3ccccc3)c3ccccc3)cc2C1 (configuration not stated)	12.0	5.2
79	O=C(c1cnsn1)N1CCc2c([nH]c3ccccc23)C1C1CCCCC1 (configuration not stated)	1.2&-1.5	-2.5&-4.7
80	CN(C)CCCn1cc(C2=C(c3c[nH]c4ccccc34)C(=O)NC2=O)c2ccccc21	-6.8	-10.0
81	O=C(C(O)c1ccccc1)N1CCN(CCCOC(c2ccc(Cl)cc2)c2ccc(Cl)cc2)CC1 (configuration not stated)	21.8	24.5
82	O=C(Nc1nnc(-c2cc(Cl)ccc2Cl)o1)C1=COCCO1	4.3	1.4
83	Cc1ccc(C(=O)NCCc2nnc3ccc(SCc4ccccc4Cl)nn23)cc1	3.7	-8.5
84	Cc1ccsc1CN(C(=O)Nc1cc(F)cc(F)c1)C(C)C	14.9&-12.4	12.1&-18.8
85	CC1=NC2=C(C(=O)CCC2)C(c2ccccc2Cl)C1C(=O)OCCOc1ccccc1 (configuration not stated)	-9.1	-14.3
86	CCc1cc(=O)[nH]c(CSc2nnc(NC3CCCCC3)s2)n1	4.3	1.0
87	O=C(CCC1CCN(C(=O)c2cccc(Cl)c2F)CC1)Nc1ccccc1	6.8	7.0
88	O=S1(=O)CCC(N2CCN(CCS(=O)(=O)c3ccc(Cl)cc3)CC2)C1 (configuration not stated)	5.0	3.5
89	CC(c1nc(C2CC2)no1)N1CCN(CCCS(N)(=O)=O)CC1 (configuration not stated)	0.6	-13.1
90	COc1ccc(-n2c(SCCCCC(=O)N3CCN(C(=O)c4cccc([N+](=O)[O-])c4)C(C)C3)nnc2-c2ccco2)cc1 (configuration not stated)	-7.0	-4.5
91	C=CCn1c(SCc2cc(NCC)ccn2)nc2ccccc2c1=O	-7.3	-3.3
92	Cc1ccc(-n2nnnc2CNC(=O)C2c3ccccc3Oc3ccccc32)cc1	12.2	7.8
93	C=C(C)Cn1c(C(=O)N2CCN(C(=O)C(Cl)c3ccccc3)C(C)C2)cc2ccoc21 (configuration not stated)	20.5	22.6
94	C=CCSc1nnc2c3ccccc3n(C)c2n1	-2.5	-4.1
95	CNc1nnc(Sc2nc(C)cc(C)c2C#N)s1	11.1	12.0
96	Cc1n[nH]c(C)c1CCC(=O)N1CCc2c(nc(-c3ccccc3)[nH]c2=O)C1	4.4	3.4
97	O=C(NCC(=O)N1CCN(CC(=O)N2CCOCC2)CC1)c1sc2ccccc2c1Cl	9.3	4.0
98	Cc1ccn(-c2ccc(Nc3ccc(NS(=O)(=O)c4ccccc4)cc3)nn2)n1	-4.2	-11.0
99	CN(C)c1cccc(C(=O)OCc2nc(-c3ccsc3)no2)c1	16.6	10.7
100	CN(C)c1nc2nonc2nc1N1CCCC(c2nc3ccccc3[nH]2)C1 (configuration not stated)	1.9	-1.5
101	CC(=O)CC(=S)Nc1ccc(Cl)cc1	3.8	1.6
102	O=C1CN(CCc2cccs2)C2CS(=O)(=O)CC2N1c1ccc(Cl)cc1 (configuration not stated)	5.2	2.1
103	Cc1cc([N+](=O)[O-])nn1CC(=O)Nc1cccc(F)c1C#N	-2.1	-2.9
104	O=C(c1cccnc1)N1CCN(C(=O)c2ccco2)CC1	2.6	0.0
105	COc1cc(/C=C2\NC(=S)NC2=O)c([N+](=O)[O-])cc1OC	-3.9	-6.5
106	Cc1nnc(-c2cccc(-c3cc(NCc4ccccn4)nc4[nH]ccc34)c2)o1	-0.7	-3.6
107	O=C1NCC(=O)N2CCN(C3CCN(Cc4ccco4)CC3)CC12 (configuration not stated)	2.0	1.6
108	COC(=O)c1ccc(-c2noc(CN(C)Cc3csc(-c4cccs4)n3)n2)cc1	19.9	4.5

Only part of the results is shown; rates above refer to the full screens.
